# Assay outcomes from PubChem.
# VACV mCherry inh: vaccinia inhibition (mCherry reporter) | Vaccinia virus mCherry reporter infection, fluorescence; about a quarter of the inactives have no number | Potency, µM (series often up to 36.5 µM), for the others: top-dose activity change, negative = inhibition, actives largely listed as inhibitors | 310,000 tested, 0.63% active | AID 720579; active = well fitted inhibition curve with a large enough effect; inconclusive = small, poorly fitted or top-dose-only effect; inactive = no such curve, though single readings can be large or run the other way; tested in A549 cells; also: nearly all actives have a fitted effect of over 35% in size; inactives centre near -10
# Vaccinia Venus: inhibitors of vaccinia virus (Venus reporter); Vaccinia virus Venus reporter expression, fluorescence; Potency, µM (titrated, usually from 36.5 µM), inactives show at the top dose activity change, negative = inhibition, hits mostly inhibitors; 330,000 tested, 0.46% active; AID 720580; active means well fitted inhibition curve with a large enough effect; inconclusive means small, poorly fitted or top-dose-only effect; inactive means no such curve, though single readings can be large or run the other way; tested in A549 cells; also: nearly all actives have a fitted effect of over 30% in size; inactives centre near -10
# * marks the source's active call; other numbers are inactive results; i = inactive; ? = inconclusive; · = not tested or not shown; & = joins results of further samples; [ ] = remark or other dose. % is scaled to controls: 0 for no effect and ±100 for the full control effect; potency is read from the fitted curve at half-maximal effect.
# Results follow in this order: VACV mCherry inh, Vaccinia Venus
COc1ccc(S(=O)(=O)N(C)c2ccc(C(=O)NCc3ccccn3)cc2)cc1OC
  i, -8%
CC(C)(C)NC(=O)CN(C(=O)CCC(=O)Nc1nccs1)c1ccc2c(c1)OCCO2
  i, -7%
Cc1cc2ccccc2n1-c1ccc(C(=O)N2CCC(C(=O)NCc3ccc(F)cc3)CC2)s1
  -22%, -24%
CC1(C)CC(N=C2C([N+](=O)[O-])=CC=C3C2=NC2(CCCCC2)N3O)CC(C)(C)N1
  -1%, 2%
O=C(NCCNCCO)C1(C(F)(F)F)C/C(=C\Cc2ccccc2)CCCO1 (configuration not stated)
  i, -10%
CC(=O)NC(Cc1ccc(F)c(F)c1)C(=O)NC1CCN(C(=O)c2ccc(C)cc2)CC1 (configuration not stated)
  i, -16%
O=C(COC(=O)c1ccccc1S(=O)(=O)N1CCCCC1)NCC(F)(F)F
  -11%, -4%
CSc1nnc(SCC2=NNC(=O)SC2)s1
  -18%, 2%
CCN(C(=O)C(=O)c1c(C)[nH]c2ccccc12)c1ccccc1
  -5%, -17%
CCCCSCCCNC(=O)c1cn(C)c2ccc(S(=O)(=O)N3CCCCC3)cc2c1=O
  -14%, -15%

# More results.
# Results follow in this order: VACV mCherry inh, Vaccinia Venus
COc1ccc(/C=C(\NC(=O)c2cccs2)C(=O)NN)cc1OC
  0%, -2%
CC(C)(C)CC(=O)NCCc1csc(-c2ccccc2)n1
  -1%, -25%
Cc1c(NC(=O)OCCNC(=O)Nc2ccccc2)sc(=S)n1C
  -3%, 3%
CCc1ccccc1NS(=O)(=O)c1ccc2c(c1)C(C)(C)C(=O)N2C
  -10%, 1%
CC(=O)NCCNC(=O)C1Cc2c(-c3ccccc3Oc3ccccc3)ccnc2O1 (configuration not stated)
  i, 0%
Cc1cccc(N(Cc2cc3ccccc3[nH]c2=O)C(=O)c2ccco2)c1C
  -13%, -5%
O=C1CNC(=O)N1c1ccc(Cl)cc1
  -1%, -4%
Cc1ccc(S(=O)(=O)C(CNC(=O)COc2ccccc2)c2ccco2)cc1 (configuration not stated)
  -20%, -13%
CCCS(=O)(=O)N1CCN(Cc2ccncc2)CC1
  i, -11%
Cc1cc(NC(=O)CSc2nc3cc(Cl)ccc3o2)no1
  -8%, 3%

# (next part)
# Results follow in this order: VACV mCherry inh, Vaccinia Venus
Cn1c(CC(=O)NCCO)c(Sc2ccccc2)c2ccccc21
  -17%, -14%
NC(=O)c1csc(CCNC(=O)c2ccccc2)n1
  0%, -6%
COc1ccc(/C=N/NC(=O)CNc2ccc(Br)cc2)c(C(=O)O)c1OC
  -3%, -17%
O=C(NNC(=O)c1csc(-c2ccccc2)n1)c1ccccc1
  13%, -6%
COc1ccc(C(C(=O)Nc2ccc(F)cc2)N2CCN(CC(=O)N3CCCC3)CC2)cc1 (configuration not stated)
  -7%, -20%
O=C(C1CCCCC1)N1CCC(n2nnc3ccccc32)CC1
  -22%, -20%
COc1ccccc1-c1nnc(SCC(=O)N2CCOCC2)o1
  -3%, 10%
Cc1ccc(S(=O)(=O)NC(C(=O)N2CCOCCOCCOCCOCC2)C(C)C)cc1 (configuration not stated)
  -6%, -1%
Cc1cccc(NS(=O)(=O)c2cc(C(=O)NCc3ccccn3)ccc2C)c1
  -17%, -8%
COc1ccccc1CN1CCNC(=O)C1CC(=O)NCCCn1cccn1 (configuration not stated)
  i, -5%

# Additional results:
# Results follow in this order: VACV mCherry inh, Vaccinia Venus
CC(Sc1nccn1C)C(=O)Nc1ccc(C(N)=O)cc1 (configuration not stated)
  -13%, -4%
CCOc1ccc(C(CC(=O)O)NC(=O)C23CC4CC(CC(C4)C2)C3)cc1OC (configuration not stated)
  -3%, -1%
CCCN(CC#CCO)CCC
  ·, -8%
COC(=O)c1cc(S(=O)(=O)NCC2CCN(Cc3cc(C)ccc3C)CC2)c[nH]1
  ?, -5%&0%
O=C(Cc1ccc(Br)cc1)NCCN1CCOCC1
  i, -5%
CS(=O)(=O)N(Cc1ccccc1)c1ccccc1C(=O)O
  ·, 2%
COc1ccc(-c2noc([C@@H]3O[C@H](CO)[C@H](O)[C@H](O)[C@H]3O)n2)cc1OC
  22%, -2%
CC(=O)NC1CCCC1C#N (configuration not stated)
  38%[activator], 2%
C=CC[C@@H](CC(=O)NCCO)C(=O)N[C@@H](COC(=O)[C@@H](CC=C)Cc1ccc(F)cc1)Cc1ccccc1
  i, ?
CCOC(=O)c1nn(-c2ccccc2C)c2nc(-c3ccc(Cl)cc3)c(C#N)c(=O)n12
  -23%, -13%

# (next part)
# Results follow in this order: VACV mCherry inh, Vaccinia Venus
CCC1=NN(C(=O)c2ccc(Br)cc2)C(O)(c2ccc(C)cc2)C1 (configuration not stated)
  i, -24%
O=C(/C=C/c1ccccc1)NCCN1CCOCC1
  i, -10%
Cc1ccc(NC(=O)CN2C(=O)C3C4C=CC(C4)C3C2=O)cc1 (configuration not stated)
  -19%, -7%
Cc1ccc(CNC(=O)CS(=O)Cc2nc(-c3cccs3)oc2C)cc1 (configuration not stated)
  14%, -7%
CCOC(=O)c1[nH]c(C)c(CCC(=O)NCc2ccccc2)c1C
  -2%, 0%
Cc1ccc(S(=O)(=O)N2CCN(Cc3ccco3)CC2)c(C)c1
  ?, -16%
COc1ccc(-c2nc3ccccc3s2)cc1NC(=O)c1cc(OC)c(OC)c(OC)c1
  -1%, 3%
COC(=O)c1cc(C(=O)c2ccc(Cl)cc2)n2c(=O)/c(=C\N(C)C)sc12
  ?, -11%
O=C(Nc1ccc(Br)cc1F)C1CCCN(S(=O)(=O)c2cnc[nH]2)C1 (configuration not stated)
  i, 9%
Cc1nc2sccn2c(=O)c1Br
  i, -7%

# The listing continues:
# Results follow in this order: VACV mCherry inh, Vaccinia Venus
CCn1c(SCC(=O)Nc2ccccc2Br)nnc1-c1cnccn1
  -26%, -11%
COc1cc2oc(-c3ccc(O)cc3)cc(=O)c2c(OC)c1O
  ?, ?
O=C(c1ccc2c(c1)CCN2S(=O)(=O)c1ccc(Cl)cc1)N1CCN(c2ccccc2F)CC1
  -11%, -8%
COCCN1C(=O)/C(=C/c2cc3c(cc2Br)OCO3)NC1=S
  0%, 6%
O=C(NC(=O)N1CCCc2ccccc21)c1ccccc1
  10%, -3%
Cc1cc(NC(=O)CSc2nc3c(c(=O)n2-c2ccc(Br)cc2)SCC3)no1
  -8%, -13%
C=CC[C@@H](CC(=O)N[C@@H](CO)Cc1ccccc1)C(=O)N[C@H](COC(=O)[C@@H](CC=C)CC(=O)OC(C)(C)C)Cc1ccccc1
  i, -19%
CCCCC(CC)CNC(=O)C1CCCN(S(=O)(=O)c2cnc[nH]2)C1 (configuration not stated)
  i, -11%
COc1ccc(NC(=O)CN(c2ccc(C(C)C)cc2)S(=O)(=O)c2c(C)noc2C)cc1OC
  i, -11%
O=C(OCC(CO)OC(CO)n1ccc(=O)[nH]c1=O)c1ccccc1 (configuration not stated)
  -8%, -8%

# (cont.)
# Results follow in this order: VACV mCherry inh, Vaccinia Venus
O=C(CSc1nc2cc(Cl)ccc2o1)c1cccs1
  ?, -25%
CCc1c(C)sc(NC(=O)c2cccs2)c1C#N
  i, -6%
CC1(C(=O)NS(=O)(=O)Cc2ccccc2C(F)(F)F)CCN1C(=O)c1ccco1 (configuration not stated)
  17%, -3%
Cc1cc(C2=NNC(=NC3CC3)SC2)c(C)n1-c1c(C)n(C)n(-c2ccccc2)c1=O
  i, 3%
Cn1ccc2c(-c3cccc(C=O)c3)cc3c(c21)C1CCC3O1 (configuration not stated)
  11%, -4%
Cc1ccc(CN2CCC[C@]3(N[C@H](c4ccc(C(F)(F)F)cc4)[C@@H]4C(=O)N(Cc5ccccc5)C(=O)[C@@H]43)C2=O)cc1
  -12%, ?
NC(=O)CN1C(=O)C2(SCC(=O)N2c2cccc(F)c2)c2ccccc21 (configuration not stated)
  1%, 1%
Cc1ccc(C(=O)N(Cc2ccc(N(C)C)cc2)Cc2ccco2)cc1
  -11%, -5%
CCNC(=O)c1ccc(C)c(-n2c(C)nc3cccnc32)c1
  2%, 0%
C=Cc1ccc(N=Cc2ccc(N(C)C)cc2)cc1
  19%, -10%

# Following part:
# Results follow in this order: VACV mCherry inh, Vaccinia Venus
Cc1ccc(C(=O)NC(=S)Nc2cccc3nsnc23)cc1
  ·, -19%
Cc1nn(C)cc1S(=O)(=O)Nc1ccc2c(c1)OCCO2
  -3%, 3%
CCCCc1ccc(NS(=O)(=O)c2cc3c4c(c2)CC(=O)N4CCC3)cc1
  -12%, -8%
COc1cccc(NC(=O)CN(C)C(=O)/C=C/c2cn(Cc3ccccc3)nc2-c2cccnc2)c1
  4%, -4%
Cc1nc(-c2ccc(F)cc2)c(CC(=O)Nc2cccc(S(=O)(=O)N3CCOCC3)c2)s1
  -3%, -13%
COC(=O)c1ccc(=O)c2nc3/c(=C/O)c(O)cc(=O)c3[nH]c12
  -6%, -11%
COc1ccc(Nc2nc3ccccc3n3c(N)nnc23)cc1
  -7%, -5%
CCOC(=O)c1cc(-c2ccccc2)sc1NC(=O)C(C)C
  -18%, -12%
CC(C)c1nnc(SCC(=O)NC(C)(C)C)n1C
  i, -11%
COc1ccc(C)cc1NC(=O)NC1CC(=O)N(c2ccc3c(c2)OCCO3)C1 (configuration not stated)
  6%, -9%

# (more compounds)
# Results follow in this order: VACV mCherry inh, Vaccinia Venus
COC(=O)C[C@H]1C=C[C@@H](NC(=O)c2ccncc2)[C@@H](CO)O1
  -14%, 1%
CCc1ccc2oc(-c3ccc(C)c(NC(=O)Cc4ccccc4)c3)nc2c1
  -10%, 0%
O=[N+]([O-])c1cccc(COc2ccc(CN3CCCCC3)cc2)c1
  -13%, -13%
O=C(CSc1ncccn1)N1CCCc2ccccc21
  -12%, -7%
CC(C)(C)n1ncc2c(=O)n(CC(=O)N3CCCC3)cnc21
  -22%, -1%
Cc1ccccc1OCCCC(=O)Nc1ccc(N2CCOCC2)cc1
  -3%, -14%
CCOc1ccc(-c2nc(CSCC(=O)NCCCN3CCCC3=O)c(C)o2)cc1
  -17%, -10%
O=C1CCCc2nn(-c3ccccc3)c(-c3ccncc3)c21
  ·, -3%
COc1ccc(C(=O)NCCCn2ccnc2)cc1
  -5%, -2%
Cc1cc(NC(=O)CSc2nnc(-c3ccccc3)o2)no1
  -12%, -11%

# Remaining list, next part.
# Results follow in this order: VACV mCherry inh, Vaccinia Venus
O=C(Cn1ncc(Cl)c(Cl)c1=O)N1CCOCC1
  ?, ?
COc1ccc(C(C)(NC(C)=O)c2nc(-c3cccc(F)c3)cs2)cc1 (configuration not stated)
  7%, -4%
CCc1ccc([C@@H]2C[C@H]3[C@@H](CN2S(=O)(=O)c2ccc(C)cc2)C(=O)C[C@@H](c2cccc(Cl)c2)N3S(=O)(=O)c2ccc(C)cc2)cc1
  -6%, -10%
O=C(NNC(=O)C1CCN(S(=O)(=O)c2ccc(Cl)cc2)CC1)c1ccccc1
  -10%, -4%
CCCc1nnc(NC(=O)c2c(O)c3cccc4c3n(c2=O)CC4)s1
  -13%, -2%
NC(=O)COC(=O)c1sc2cc(F)ccc2c1Cl
  i, -11%
C=CCN1C(=O)CS/C1=C(\C#N)S(=O)(=O)c1ccc(C)cc1
  ·, 157%[activator]
CCOc1ccc(-c2nc(CSCC(=O)NCCN3CCOCC3)c(C)o2)cc1
  -1%[1.46 µM], -14%
CSc1cccc(-n2cc(-c3ccc4c(c3)OCO4)[nH]c2=O)c1
  ?, -29%
O/N=C1\CCc2cc(Cl)ccc21
  ·, -25%

# Continuation:
# Results follow in this order: VACV mCherry inh, Vaccinia Venus
CCSc1nc(N)nc2c1ncn2C1OC(CO)C(O)C1O (configuration not stated)
  -12%, -8%
O=C(Nc1ccc2c(c1)OCCO2)C1c2ccccc2OCC(=O)N1CCCN1CCOCC1 (configuration not stated)
  -10%, -9%
Cc1nc(NCCN2CCOCC2)c2nnn(Cc3c(F)cccc3Cl)c2n1
  -8%, 1%
CCOC(=O)c1cn(CC)c2cc(N3CCCCC3)c(F)cc2c1=O
  -3%, 2%
O=S(=O)(c1ccc(F)c(F)c1)N1CCN(S(=O)(=O)c2cccs2)CC1
  2%, -6%
NCCc1nc2ccccc2s1
  i, -13%
CN(C)S(=O)(=O)c1ccc(C(=O)NCCSc2c(-c3ccccc3)[nH]c3ccccc23)cc1
  ?, ?
Cc1cccc(NC(=O)C2CCCN(C(=O)Nc3ccc(F)cc3)C2)c1C (configuration not stated)
  -7%, -8%
CCSc1nc(-c2cccc(Cl)c2)nc2c1Cc1c(CO)cnc(C)c1O2
  -11%, -13%
COc1cc(CNC(=O)c2cnc(SC)nc2-c2ccccc2)cc(OC)c1OC
  4%, 1%
Cc1oc2ccc(O)c(CN3CCN(Cc4ccccc4)CC3)c2c1C(=O)Nc1ccccc1
  -19%, -7%
Cc1cccc(NC(=O)c2c(C)oc3ncn(CC(C)C)c(=O)c23)n1
  -14%, 0%
